Sa growth 42C: S. aureus growth inhibition at 42 and 30 °C, primary screen, LtaS inhibitor project, RN4220, two temperatures; AID 720641, 2013; 170,000 tested, 0.53% active; OD600, 20 h, 42 °C; stronger effect = lower value; relative growth, % (test concentration not listed);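 active = growth at 42 °C up to 50% and 20 or more points under that at 30 °C, or under 10% at both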;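 note: 300 nL library stock went into each well; scaled to the means of positive and negative controls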
HCMV UL50-53 inh: inhibitors of HCMV UL50-UL53 interaction, biochemical, HTRF; HCMV UL50-UL53 nuclear egress complex (human cytomegalovirus); normalized percent inhibition; inhibition, % (test concentration not listed); 190,000 tested, 0.15% active; AID 1918969, 2023;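 active = both replicates at 50% or more, plus weaker picks with an unusually low signal ratio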;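 note: stock transfer was 100 nL into about 20 µL; 0% = negative control wells and 100% = wells with untagged competitor protein; inactives centre near -12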
GIV-Gai inh: inhibitors of GIV peptide binding to Galpha-i3, primary screen, biochemical, fluorescence polarization, FITC-GIV GBA peptide, rat Galphai3. Guanine nucleotide-binding protein G(i) subunit alpha-3 (Rattus norvegicus), P08753. 90 min; stronger effect = lower value; scaled: aluminum fluoride 0%, vehicle 100%. percent of control (FP), % (concentration not given with the values). 210,000 tested, 0.42% active;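 active = replicate mean at 85% of control or lower, very high polarization wells dropped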;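 note: wells of about 15 µL received 100 nL stock; the first replicate is given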
Target sequence (P08753 whole entry, looked up): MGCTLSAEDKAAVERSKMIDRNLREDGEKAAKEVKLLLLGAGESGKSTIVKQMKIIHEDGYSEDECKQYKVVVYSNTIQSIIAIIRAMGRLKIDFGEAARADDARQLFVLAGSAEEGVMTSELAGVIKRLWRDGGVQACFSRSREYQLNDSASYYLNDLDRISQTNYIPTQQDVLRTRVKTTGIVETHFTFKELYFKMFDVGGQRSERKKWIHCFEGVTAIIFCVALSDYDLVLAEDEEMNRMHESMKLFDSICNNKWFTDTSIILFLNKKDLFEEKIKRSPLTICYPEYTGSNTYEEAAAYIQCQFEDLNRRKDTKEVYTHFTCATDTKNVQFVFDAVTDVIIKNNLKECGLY
Sa growth 42C second temp: further read-out of Sa growth 42C, marked with its call; relative growth, %; measured here: growth at 30 °C;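 optical density after 20 h as mean of two plates; 100% = untreated growth and lower means inhibition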
* = called active by the depositor; x = no result given; & = joins results of further samples.

no. | smiles | Sa growth 42C | Sa growth 42C second temp
1 | Cc1ccc(C)c(N2CCN(c3nc4c(S(=O)(=O)c5ccccc5)nnn4c4ccc(Cl)cc34)CC2)c1 | 95 | 88
2 | Cc1ccc(S(=O)(=O)c2nnn3c2nc(N2CCN(c4cccc(C)c4C)CC2)c2ccccc23)cc1C | 110 | 96
3 | COc1ccc(Cn2c(=O)[nH]c3ncccc3c2=O)cc1 | 97 | 94
4 | Cc1oc(-c2ccc(C(=O)NCc3ccccc3)cc2)nc1CS(=O)c1ccccc1 (configuration not stated) | 101 | 86
5 | CC(C)NS(=O)(=O)c1ccc(OCC(=O)N2CCN(c3cccc(Cl)c3)CC2)cc1 | 104 | 102
6 | Cc1ccc(C)c(CN2C(=O)c3ccccc3S(=O)c3ccc(C(=O)N(C)Cc4ccccc4)cc32)c1 (configuration not stated) | 95 | 81
7 | COc1ccc(-c2ccc(NS(=O)(=O)c3ccc(NC(C)=O)cc3)cc2)nn1 | 87 | 89
8 | O=C1Nc2ccccc2C(=O)N2CCCC12 (configuration not stated) | 85 | 73
9 | CCCCCCN1C(=O)CC(C)Nc2ccccc21 (configuration not stated) | x | x
10 | O=C(NCC(c1ccccc1)c1c[nH]c2ccccc12)NC1CCCCC1 (configuration not stated) | x | x
11 | CC(C)n1cnc2scc(-c3ccccc3)c2c1=O | x | x
12 | CNc1ccccc1C(C)(C)c1ccnn1-c1ccccc1 | 86 | 113
13 | O=C1NCCN1CCNS(=O)(=O)c1cc(C(F)(F)F)cc(C(F)(F)F)c1 | 91 | 86
14 | c1ccc(C2(c3ccccc3)OCC(Cn3cncn3)O2)cc1 (configuration not stated) | 75 | 99
15 | Cn1c(=O)c2c(C(=O)N3CCCCC3)cc(=O)n(C)c2n(C)c1=O | x | x

no. | HCMV UL50-53 inh | GIV-Gai inh
1 | -32 | 103
2 | x | 103
3 | 5 | 105
4 | -22 | 100
5 | 3 | 109
6 | -25 | 100
7 | x | 102
8 | -17 | 101
9 | 30 | 107
10 | -25 | 98
11 | -22 | 97
12 | 2 | x
13 | -15 | 99
14 | x | 102
15 | -6 | 101

no. | smiles | Sa growth 42C | Sa growth 42C second temp
16 | C=CCn1c(N)c(-c2nc3ccccc3n2C)sc1=S | 87 | 72
17 | Cn1c(SCCC(=O)Nc2ccccc2)nnc1-c1cc2ccccc2o1 | 104 | 101
18 | Cn1ncc2c(NC3CCCCC3)ncnc21 | 96 | 85
19 | Ic1cccc2c1N1CCN2CC1 | 94 | 92
20 | CCCCn1c(=S)[nH]c2cc(Cl)ccc2c1=O | 101 | 106
21 | Cc1noc2c1C(c1cccc(O)c1)C1=C(CC(c3ccc(Cl)cc3)CC1=O)N2 (configuration not stated) | x | x
22 | CCOC(=O)c1c(C)n(-c2cccc(C)c2)c2ccc(O)cc12 | 111 | 85
23 | O=C(CSc1nc2ccccc2o1)N1CCNC1=O | 93 | 98
24 | Cn1c(SCc2cc(=O)[nH]c3ccccc23)nc2ccccc2c1=O | 111 | 101
25 | COc1ccc(S(=O)(=O)N(CC(=O)NC2CC2)C2CCCCC2)cc1Cl | 112 | 102
26 | CCCc1cc(=O)[nH]c(SCC(=O)N2CCN(c3ccccc3OC)CC2)n1 | 111 | 88
27 | CCOC(=O)c1c(C)c(C(=O)NCc2ccc(Cl)cc2)c(C)n1C | 86 | 88
28 | Cc1cccnc1NC(=O)C(Cc1ccccc1)N1Cc2ccccc2C1=O (configuration not stated) | x | x
29 | CNC(=S)N1CCN(c2ccccc2OC)CC1 | 90 | 84
30 | COc1cc(/C=c2\sc3nc4ccccc4n3c2=O)cc(Cl)c1OCc1cccc(C(=O)O)c1 | x | x

no. | HCMV UL50-53 inh | GIV-Gai inh
16 | -12 | 136
17 | -28 | 110
18 | 0 | 100&100
19 | -9 | 104
20 | 4 | x
21 | -4 | 105
22 | -7 | x
23 | 8 | x
24 | -4 | 102
25 | -7 | 104
26 | -4 | 103
27 | -19 | 104
28 | -4 | 106
29 | -48 | 100
30 | -3 | 104

no. | smiles | Sa growth 42C | Sa growth 42C second temp
31 | CC(C)NC(=O)Nc1ccccc1C(=O)O | 100 | 90
32 | Cc1ccc(Cn2c(SCC(=O)O)nc3c2c(=O)n(C)c(=O)n3C)cc1 | x | x
33 | CC(C)c1ccc(NC(=O)c2cc(S(=O)(=O)N3CCc4ccccc4C3)ccc2F)cc1 | 130 | 99
34 | COc1ccc(NC(=O)c2nc(-c3ccc(C)cc3)n3c2CCCCC3)c(OC)c1 | 108 | 86
35 | O=C(NCc1ccco1)c1ccc2c(c1)N(Cc1cccc(Cl)c1)C(=O)c1ccccc1S2(=O)=O | 131 | 97
36 | O=C(CN1CCC(c2nc3ccccc3s2)CC1)N(C1CCCCC1)C1CCS(=O)(=O)C1 (configuration not stated) | 91 | 94
37 | CN(C)CCCNc1nc2ccccc2nc1NS(=O)(=O)c1ccc(Cl)cc1 | 96 | 92
38 | Cc1ccc2nc(SCN3C(=O)c4ccccc4C3=O)[nH]c2c1 | 95 | 96
39 | Cc1nc2c(c(C)nn2C(C)(C)C)c(C)c1CCC(=O)N1CCCCCC1 | 103 | 95
40 | CCOC(=O)Cc1ccc(NC(=O)Nc2cccc(OCc3cc(=O)n4cc(C)ccc4n3)c2)cc1 | 79 | 86
41 | Cn1c(SCC(=O)N=S(C)(=O)c2ccc(Cl)cc2)nnc1C(F)(F)F (configuration not stated) | 88 | 89
42 | COC(=O)c1ccccc1NC(=O)c1ncoc1-c1cccc(OC)c1 | x | x
43 | CCC(=O)OCC(=O)[C@@]1(OC(=O)CC)[C@@H](C)C[C@H]2[C@@H]3CCC4=CC(=O)C=C[C@]4(C)C3(F)[C@@H](O)C[C@@]21C (some centres not stated) | 87 | 87
44 | Cc1csc(C(C(=O)O)c2ccccc2)n1 (configuration not stated) | 104 | 88
45 | O=c1[nH]c2ccc(S(=O)(=O)N3CCCC3)cc2s1 | 129 | 107

no. | HCMV UL50-53 inh | GIV-Gai inh
31 | -5 | x
32 | -15 | 105
33 | x | 111
34 | x | 104
35 | x | 105
36 | -6 | x
37 | -29 | x
38 | -20 | x
39 | 10 | 110
40 | x | 98
41 | 2 | 97
42 | 8 | 106
43 | -23 | 107
44 | -4 | x
45 | 4 | x

no. | smiles | Sa growth 42C | Sa growth 42C second temp
46 | Cc1oc2ccc(O)c(CN(C)C)c2c1C(=O)OCCc1ccccc1 | x | x
47 | COCc1cc(C)nc2sc3c(=O)n(Cc4ccccc4)nnc3c12 | 108 | 90
48 | CCC(Cc1cccc(O)c1)C(=O)O (configuration not stated) | 79 | 94
49 | CCn1cc(C(=O)NCc2ccc(C)cc2)c(=O)c2cc(S(=O)(=O)N3CCCCCC3)ccc21 | 121 | 96
50 | COc1ccc(CNc2ncn[nH]2)cc1OC | 105 | 86
51 | Cc1nc(Nc2ccccc2)nc(Nc2ccccc2)c1[N+](=O)[O-] | x | x
52 | Cc1ccc(NC(=O)CSc2ccc(-c3sc(-c4ccccc4)nc3C)nn2)cc1 | x | x
53 | CCCNC(=O)Nc1cccc(CC)c1 | 100 | 90
54 | COc1ccc(N2CCN(C(=O)c3ccc(C#CC4(O)CCCCC4)cc3)CC2)cc1 | 85 | 102
55 | O=C(Nc1ccncc1)c1ccccc1OCc1nc(-c2ccccc2)no1 | x | x
56 | Cc1ccc(-n2ncc(C(=O)NCCN3CCCC3)c2C2CCN(C(=O)OC(C)(C)C)CC2)cc1 | 108 | 106

no. | HCMV UL50-53 inh | GIV-Gai inh
46 | -25 | 99
47 | -15 | x
48 | -1 | x
49 | x | 104
50 | x | 102
51 | -9 | 105
52 | -20 | 102
53 | 14 | 100
54 | -20 | x
55 | -21 | 106
56 | x | 108
